# PABP polyA inh: blocks human PABP binding to poly(A) RNA; P11940; 290,000 tested, 1% active; inhibition, % at 35 µM; fluorescence polarization;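 active = 50% or more with normal probe brightness, or confirmed in later tests; inconclusive = above 50% with abnormal brightness, or retests that disagree; inactive = below 50% or failed in later tests; about a fifth of its hits are not listed in these tables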;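 note: calls also rest on retests at 20 µM and on dose response follow-up; controls were probe without protein and protein plus probe with vehicle; some compounds called inactive have numbers as strong as hits; many hits fall short of the cut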
# Target sequence (P11940 whole entry, looked up): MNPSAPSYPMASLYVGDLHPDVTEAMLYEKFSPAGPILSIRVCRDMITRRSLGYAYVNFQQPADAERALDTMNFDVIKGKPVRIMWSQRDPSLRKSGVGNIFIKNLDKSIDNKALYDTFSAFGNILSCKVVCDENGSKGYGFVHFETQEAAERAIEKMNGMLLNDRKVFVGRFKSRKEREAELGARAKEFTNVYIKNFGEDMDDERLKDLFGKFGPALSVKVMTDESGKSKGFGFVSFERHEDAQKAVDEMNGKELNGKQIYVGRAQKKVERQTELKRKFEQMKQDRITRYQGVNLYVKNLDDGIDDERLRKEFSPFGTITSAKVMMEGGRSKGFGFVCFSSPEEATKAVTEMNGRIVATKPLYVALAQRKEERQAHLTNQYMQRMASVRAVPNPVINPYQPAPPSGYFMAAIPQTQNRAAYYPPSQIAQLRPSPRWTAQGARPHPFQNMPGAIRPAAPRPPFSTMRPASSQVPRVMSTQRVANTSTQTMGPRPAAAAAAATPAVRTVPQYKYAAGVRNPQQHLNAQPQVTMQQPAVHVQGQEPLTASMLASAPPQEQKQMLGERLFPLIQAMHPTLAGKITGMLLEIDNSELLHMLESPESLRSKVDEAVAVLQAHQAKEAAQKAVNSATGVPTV
# CSC inhib: cancer stem cell inhibition; cancer stem cell-like cells viability, luminescence; inhibition, % at 7.5 µM; 300,000 tested, 1.1% active; AID 2717;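 active = mean at 75% or more and at least half the replicates too; inconclusive = mean and replicates disagree; tested in HMLE shEcad cells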;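 note: 0% = median of negative and 100% = median of positive control wells; the first replicate is given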
# Rce1 inhib: inhibitors of yeast Ras-converting enzyme. AID 2563. calls only. 290,000 tested, 0.27% active. Q03530. yeast membranes, quenched prenylated peptide cleavage fluorescence;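 active = fall in fluorescence gain of 50% or more versus controls, with final raw signal at or below 3038400; inconclusive = same 50% fall but final raw signal above 3038400; inactive = fall in fluorescence gain under 50%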;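 note: plate controls were neutral control wells for no effect and wells lacking membranes for full effect; tested at 10 µM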
# MT1-MMP act inh: blocks activation of human MT1-MMP | P50281 | HT1080 RFP-PRO-GFP cells, GFP/RFP ratio fluorescence, overnight; percent of plate control window, DMSO zero | GFP/RFP ratio change, % at 20 µM | 360,000 tested, 0.061% active;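 active = GFP/RFP ratio change of at least 30% with cell ATP level not reduced by more than half and red fluorescence within 50% of control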; note: strong numbers were not always called active
#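 Test system: HT1080 RFP-PRO-GFP cells; Benchmarks: DMSO and RFP-L50D-GFP cell wells; Timing: cells overnight before dosing, compound overnight, 37 °C, 5% CO2; Compound: one 20 µM compound dose with 1% DMSO; Read-out: GFP/RFP fluorescence ratio.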
# eIF4H inh: inhibitors of RNA binding by human eIF4H | eIF4H fluorescence polarization binding assay | Q15056 | inhibition, % at 35 µM | 290,000 tested, 0.94% active;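 active = 50% or more with normal probe brightness, or confirmed in later tests; inconclusive = above 50% with abnormal brightness, or retests that disagree; inactive = below 50% or failed in later tests; about a fifth of its hits are not listed in these tables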;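 note: calls also rest on retests at 20 µM and on dose response follow-up; 0% = protein and probe with vehicle and 100% = probe without protein; strong numbers were not always called active; many hits fall short of the cut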
# UUG fidelity: alters start codon recognition fidelity in yeast. S. cerevisiae UUG-firefly luciferase reporter, luminescence/redox ratio. activity score, % at 18.7 µM. 350,000 tested, 0.13% active. AID 602363;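 active = replicate mean at a twofold rise or more, about +100% in these data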;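 note: firefly luciferase made from a UUG start codon reports start codon fidelity; reporter light over untreated wells divided by growth signal over untreated wells; some hits fall short of that in this replicate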
# HIV Env fusion: inhibitors of HIV Env-mediated cell fusion; HeLa-JRFL Env/CEM21 cell fusion, luciferase; inhibition, % at 12.3 µM; 360,000 tested, 1.1% active;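 active = mean replicate inhibition score of at least 50 and every replicate individually at or above 50; inconclusive = only one of the two criteria met; inactive = mean below 50 and not all replicates reaching 50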;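 note: 0% = plate neutral controls and 100% = maraviroc near 300 nM; one replicate is shown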
# eIF4H inh retest: further read-out of eIF4H inh, marked with its call; inhibition, %; compound at 20 µM; confirmation average;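 mean of two retest wells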
# PABP polyA inh retest: further read-out of PABP polyA inh, marked with its call; inhibition, %; compound at 20 µM; confirmation repeats;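 mean of two retest wells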
# MT1-MMP act inh RFP: second read-out of MT1-MMP act inh, no call of its own (marks repeat the call); RFP signal change, %; measured here: RFP expression control read;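 0 = vehicle wells; hits needed this value within 50% of zero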
# Starred values were filed as active, the others as inactive; i = inactive; ? = inconclusive; nt = not tested or not shown; & = joins results of further samples; [ ] = dose if it differs, or a comment.
SMILES,PABP polyA inh,CSC inhib,Rce1 inhib,MT1-MMP act inh,MT1-MMP act inh RFP,eIF4H inh,UUG fidelity,HIV Env fusion,others
CCOc1ccccc1/C=C/c1onc(C)c1S(=O)(=O)N1CCC(C(=O)N(CC)CC)CC1,-6,14,i,-7,-12,6,-2,8,
CCOc1ccc(OCCC(=O)OCC(=O)Nc2ccc3c(c2)OCO3)cc1,nt,-12,i,2,1,nt,nt,-6,
O=[N+]([O-])c1cnccc1Nc1ccc(F)cc1,-9,-6,i,3,10,-7,-7,-165,
CC(=O)Nc1ccc(C(=O)Nc2ccc(S(=O)(=O)N3CCCC3)cc2)cc1,-5,-5,i,6,7,10,-10,nt,
Cc1ccc(NC(=O)Nc2nc3ccccc3s2)cc1NC(=O)Nc1nc2ccccc2s1,3,28,i,-3,3,-2,-16,16,
Cc1ccc([N+](=O)[O-])cc1N(CC(=O)N1CCCCC1)S(C)(=O)=O,-16,2,i,-3,-1,9,nt,4,
COc1ccc(CC(NC(=O)c2ccccc2)C(=O)NCC(=O)O)cc1 (stereo unspecified),11,7,i,3,5,9,6,nt,
CS(=O)(=O)N(CC(=O)NCc1ccc2c(c1)OCO2)C1CCCCC1,-5,-7,i,-3,-2,3,nt,12,
O=C(Nc1ccc(Br)cc1)C1CCN(C(=O)c2ccc(F)cc2)CC1,0,-15,i,1,-2,-15,nt,nt,
Cc1cc(C)nc(SCc2ccc(C(=O)NN=C3CCCC3)cc2)n1,-15,1,i,-2,2,-10,nt,-7,
O=S(=O)(NC1CC1)c1ccc(S(=O)(=O)N2CCCC3(CCCCC3)C2)cc1,10,12,i,-3,0,-18,-11,nt,
CC(C)[C@@H](NC(=O)C1CCC(CNC(=O)[C@H](Cc2ccccc2)NC(=O)OC(C)(C)C)CC1)C(=O)O (stereo partly specified),-10,0,i,-1,4,90,-15,2,eIF4H inh retest=-7;PABP polyA inh retest=9
COc1ccc(C2=C(Nc3ccc(F)cc3)c3ccccc3C2=O)cc1,-14,21,i,-3,1,4,8,nt,
COCCn1c(-c2ccc(-c3ccccc3Cl)o2)nc2c1c(=O)[nH]c(=O)n2CC(C)C,-13,-2,i,-3,4,-8,-8,-12,
COc1ccc2c(c1)[nH]c1c(=O)n(CCN(C)C)cnc12,2,1,i,7,-2,-12,-24,-26,
CCOC(=O)[C@@H]1CSCCS(=O)(=O)N1,nt,nt,nt,0,0,nt,3,-18,
CC(C)(C)n1cnnc1Sc1ncccc1[N+](=O)[O-],0,1,i,-3,1,0,nt,-4,
CC(=O)Nc1ccc(OCC(=O)N2CCc3ccccc3C2)cc1,5,-2,i,-1,2,3,-5,-2,
COc1cc(/C=N/NC(=O)CCc2n[nH]c(=O)[nH]c2=O)ccc1O,-3,-7,i,-3,3,-6,-16,-14,
CC(C)c1ccc(NC(=O)C(c2ccccc2)N(C)C(=O)CCc2c[nH]c3ccccc23)cc1 (stereo unspecified),nt,?,i,-3,-5,nt,-16,-19,
CCc1ccc(C2NC(=S)NC3=C2C(=O)CC(C)(C)C3)cc1 (stereo unspecified),-15,-2,i,-3,-3,-2,nt,9,
CCCCC(=O)Nc1ccc2oc(-c3ccncc3)nc2c1,-3,-5,i,-1,-1,9,nt,-69,
Cn1ncc2c(NCc3ccccc3)ncnc21,4&2,-12,i,2,-2,-3&-9,-5,nt,
CCC(=O)Nc1ccc2c(c1)N(C(C)=O)c1ccccc1CC2,-8,-11,i,3,4,-6,10,-45,

# Next section (2 carried over from the part before).
SMILES,PABP polyA inh,CSC inhib,Rce1 inhib,MT1-MMP act inh,MT1-MMP act inh RFP,eIF4H inh,UUG fidelity,HIV Env fusion,others
Cn1ncc2c(NCc3ccccc3)ncnc21,4&2,-12,i,2,-2,-3&-9,-5,nt,
CCC(=O)Nc1ccc2c(c1)N(C(C)=O)c1ccccc1CC2,-8,-11,i,3,4,-6,10,-45,
COc1cccc(CN(C)C(=O)c2cc(S(=O)(=O)NCc3ccccc3)ccc2C)c1OC,nt,-3,i,1,-6,nt,nt,11,
O=C1Cc2ccccc2C(c2ccc(Br)cc2)N1 (stereo unspecified),-1,-4,i,-1,-3,1,-9,nt,
Cc1cc(C)c(S(=O)(=O)N2CCCc3ccccc32)c(C)c1,13,31,i,-2,-6,5,-3,21,
Cc1cc(C(=O)NCC(=O)O)c(C)o1,9,-8,i,2,2,8,-23,nt,
CC(C)CCNC(=O)C(=O)Nc1cc2c3c(c1)CC(=O)N3CCC2,-9,-2,i,4,7,-2,3,4,
COCCn1nnnc1C(CC(C)C)N1CCN(c2cccc(OC)c2)CC1 (stereo unspecified),7,nt,i,2,-1,-10,8,nt,
Nn1cc(-c2ccccc2)nc1SCC(=O)Nc1ccc2c(c1)OCO2,6,5,i,2,2,1,nt,0,
O=C(O)C(Cc1ccccc1)n1c(=S)[nH]c2ccccc2c1=O (stereo unspecified),4,nt,i,-2,2,-1,-7,-9,
CC1=CCC(COC(=O)Nc2ccccc2)CC1 (stereo unspecified),-7,7,i,7,2,-10,-15,nt,
C/C(=N/NC(=O)c1ccc(Br)o1)c1ccncc1,2,1,i,2,6,3,-14,-7,
C[C@H]1CN([C@@H](C)CO)S(=O)(=O)c2ccc(-c3cncnc3)cc2O[C@H]1CN(C)C(=O)NC1CCCC1,nt,nt,nt,-4,6,nt,6&-10&-18,-20,
O=C(c1ccc(Br)o1)N1CCN(CCc2ccncc2)CC1,-7,30,i,5,-1,-2,-6,10,
O=C1NC(=S)S/C1=C\c1cccc([N+](=O)[O-])c1,nt,nt,nt,-8,-19,nt,-15,-1,
O=C(CCc1nc2ccccc2c(=O)[nH]1)NNC(=O)COc1cccc(F)c1,nt,0,nt,0,1,nt,-8,nt,
CCN(Cc1nc(-c2ccccc2)no1)C(=O)c1ccco1,4,nt,i,0,1,8,-9,8,
CC(C)OCCCN1CN(S(=O)(=O)c2ccccc2)c2nc3ccccc3nc21,10,-4,i,0,9,10,-13,nt,
CC(=O)c1sc2nc(CSc3nnnn3-c3ccccc3)[nH]c(=O)c2c1C,0,-11,i,-90,8,?,17,3,
CC(C)c1ccc(NC(=O)C2CSC3(C)CCC(=O)N23)cc1 (stereo unspecified),-11,-3,nt,-2,3,-6,-15,-20,
CN(CCOc1ccccc1)C(=O)c1ccc(F)c(S(=O)(=O)N2CCOCC2)c1,nt,36,i,-1,-7,nt,6,0,
Cc1cc(C)c(NC(=O)CSc2nnc(-c3ccncc3)n2Cc2ccco2)c(C)c1,-3,0,i,4,0,-1,-18,nt,
CC(NC(=O)Cc1ccccc1[N+](=O)[O-])c1ccccc1 (stereo unspecified),-2,-1,i,nt,nt,2,nt,19,
CCCn1nc(C(=O)Nc2nnc(CC)s2)c2ccccc2c1=O,-12,6,i,2,7,-8,-12,-6,
CN1/C(=C\C(=O)c2cccnc2)C(C)(C)c2ccccc21,-5,-8,i,-2,-3,-14,nt,-4,
NC(=O)c1cccc(-c2ccnc3c2CC(C(=O)Nc2ccccc2)O3)c1 (stereo unspecified),nt,nt,nt,1,-5,nt,16,-19,
O=C1CCCN1c1ccc(S(=O)(=O)Oc2ccc(Cl)cc2)cc1[N+](=O)[O-],4,15,i,1,-23,0,-11,nt,
Cc1ccccc1C(=O)N1CCc2c([nH]c3ccccc23)C1C(F)(F)F (stereo unspecified),5,3,i,-2,-8,-5,-1,6,
Cc1cc(N2CCN(C(=O)c3ccco3)CC2)c2ccccc2n1,8,-20,i,0,0,-9,-17,-8,
CC1(C(=O)NCc2ccccc2Br)CCN1Cc1ccc2ccccc2c1 (stereo unspecified),nt,nt,nt,1,-10,nt,3,39,
O=C(O)C1C2CCC(O2)C1C(=O)Nc1ccc(O)cc1 (stereo unspecified),-1,-5,i,3,5,21,nt,-18,
COc1ccc(C(=O)Nc2cc(C)on2)c(OC)c1,6,-9,i,0,1,-7,1,-18,
O=C(NCCO)/C(=C/c1ccco1)NC(=O)c1ccco1,nt,-6,i,1,1,nt,nt,-20,
CCOC(=O)c1cncc(C#CCOC(=O)Nc2ccc(OC(F)(F)F)cc2)c1,-6,7,i,1,2,-8,-4,11,
COc1ccc2o/c(=N/NC(=O)c3cccs3)c(C(N)=O)cc2c1,6,42,i,-55,3,30,nt,-115,
NC(=O)C[C@H](N)c1cn([C@@H](CC(N)=O)C(=O)N2CCNCC2)nn1,nt,3,nt,-4,-2,nt,-7,1,
Cc1c(Cl)cccc1NC(=S)N1CCCN(Cc2ccc(F)cc2)C1,14,3,i,1,-1,4,-12,23,
Cc1cccc(NC(=S)NCc2ccccc2Cl)c1C,-6,16,i,3,3,-2,-17,0,
CCCCNC(=O)Nc1ccc(C2SCCS2)cc1,-4,2,i,1,1,6,-32,-13,
O=C(CCNC(=O)c1ccccc1Cl)Nc1nc2ccc(F)cc2s1,nt,-11,nt,1,2,nt,-6,nt,
CN(C)CCNc1oc(COc2ccc(-c3ccccc3)cc2)nc1C#N,-10,-4,i,2,-8,-18,-8,nt,
CCC(C)NC(=O)C1CCCN(S(=O)(=O)c2ccc(-n3cnnn3)cc2)C1 (stereo unspecified),7,nt,i,6,2,-3,-3,-101,
CCc1nnc(NC(=O)CCC(=O)NCc2ccc(C)cc2)s1,4,0,i,1,5,-2,-8,13,
CCOc1ccc(CNn2nnnc2N)cc1,0,2,i,-13,0,6,-23,-30,
CCOc1ccc(C(=O)Nc2cccc([N+](=O)[O-])c2)cc1Br,8,13,i,3,-2,-5,nt,-19,
CCCS(=O)(=O)NC(=O)C1(C)CCN(C(=O)c2cc(C)n(C(C)(C)C)n2)C1 (stereo unspecified),nt,nt,nt,0,3,nt,-6,-34,
Cc1ccc2c(c1)cc(CN(Cc1cccs1)C(=O)c1ccco1)c1nnnn12,0,-13,i,1,-5,-6,-4,-339,
O=C(CSCc1ccc(Cl)cc1)N/N=C/c1ccco1,-6,6,i,1,4,4,nt,-2,
CN(C)c1ccc(CNS(=O)(=O)c2ccc3c(c2)C(C)(C)C(=O)N3C)cc1,-9,-6,i,3,0,-2,-10,2,
CCn1c(Cn2nnc(-c3ccccc3)n2)nnc1SCC(=O)Nc1ccc(C(C)=O)cc1,-3,4,i,-2,2,-2,-12,nt,
COc1cccc(S(=O)(=O)Nc2ccc3c(c2)C(=O)N(C)C[C@H](OC)[C@H](C)CN[C@@H](C)CO3)c1,nt,nt,nt,0,7,nt,-11,3[16.7 µM],
CC(C)OC(=O)/C(C#N)=C/c1c[nH]c2ccccc12,5,2,i,2,4,-21,nt,2,
CC(=O)N1CCc2cc(S(=O)(=O)NCCCN3CCC(C)CC3)ccc21,7,-2,i,3,3,-3,-5,-16,
CCOc1ccc(N2C(=O)C3CCCN3C2=O)cc1 (stereo unspecified),-7,-19,i,-2,-2,-2,10,nt,
O=C(NCCC(=O)N1CCCCC1)c1ccccc1Cl,15,-3,i,-3,2,-1,-4,-24,
CCN(CC)C(=O)c1cccc(NC(=O)CC23CC4CC(CC(C4)C2)C3)c1,10,41,i,-1,-2,-10,15,8,
O=C(C[C@@H]1C/C=C/CC[C@H](Cc2ccc(F)cc2)C(=O)O[C@H](c2ccccc2)CNC1=O)NCCO,nt,7,nt,0,1,nt,-10,67*,
